Assay outcomes: PubChem, National Center for Advancing Translational Sciences (NCATS)
Sfp inh = Sfp phosphopantetheinyl transferase inhibition; Q9F4F7; Biochemical Sfp PPTase activity, qHTS; Potency, µM, for inactives: max response, negative = inhibition, actives largely listed as inhibitors; 310,000 tested, 3.5% active; active means well fitted inhibition curve with a large enough effect; inconclusive means small, poorly fitted or top-dose-only effect, or another doubt; inactive means no such curve, though single readings can be large or run the other way;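 further: the enzyme is Sfp with the accession as filed and its product quenches rhodamine fluorescence; potency means the concentration at half of the fitted maximal effect; 0% = enzyme reaction without inhibitor and -100% = no enzyme wells; top concentration of the series not given in the record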
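Reaction rates are the 30-min fluorescence difference (ex 525, em 598 nm) in wells containing 15 nM Sfp, 5 uM rhodamine-CoA and 12.5 uM BHQ-2-YbbR at pH 7.6 with 10 mM MgCl2.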
TRPML1 inh = human mucolipin-1 channel inhibition. TRPML1-inducible cells, Ca2+ dye fluorescence, FDSS; stronger effect = lower value; inhibition of EC80 agonist-evoked calcium signal. activity change, negative = inhibition, % (test concentration not listed). 390,000 tested, 0.02% active. Q9GZU1; in the data active means activity change below about -50%; inconclusive means about -30% to -50%; inactive means above about -30%;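 further: stimulus is agonist 54-4 at its EC80 concentration; on the % scale 0 is the no-effect control and ±100 the full control effect; compound concentration not given in the record; the text of the record puts the active cut at -80%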
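Tet-induced TRPML1-DL cells loaded with Ca8 no-wash calcium dye were read kinetically on FDSS. Compound addition was followed by EC80 agonist 54-4 (4 uM final); inhibition was read over 110 s.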
TRPV1 PAM = human TRPV1 potentiation; Q8NER1; TRPV1-expressing cells, Fluo-8 calcium influx, capsaicin EC20 potentiation; host cell line not named in the record; control for the full effect not named in the record; potentiation, % at 8.33 µM; 320,000 tested, 0.02% active; AID 540277; active means potentiation above 80%; inconclusive means 30% to 80%; inactive means below 30%; further: 0% is about no effect
Target sequence (Q8NER1 whole entry, looked up): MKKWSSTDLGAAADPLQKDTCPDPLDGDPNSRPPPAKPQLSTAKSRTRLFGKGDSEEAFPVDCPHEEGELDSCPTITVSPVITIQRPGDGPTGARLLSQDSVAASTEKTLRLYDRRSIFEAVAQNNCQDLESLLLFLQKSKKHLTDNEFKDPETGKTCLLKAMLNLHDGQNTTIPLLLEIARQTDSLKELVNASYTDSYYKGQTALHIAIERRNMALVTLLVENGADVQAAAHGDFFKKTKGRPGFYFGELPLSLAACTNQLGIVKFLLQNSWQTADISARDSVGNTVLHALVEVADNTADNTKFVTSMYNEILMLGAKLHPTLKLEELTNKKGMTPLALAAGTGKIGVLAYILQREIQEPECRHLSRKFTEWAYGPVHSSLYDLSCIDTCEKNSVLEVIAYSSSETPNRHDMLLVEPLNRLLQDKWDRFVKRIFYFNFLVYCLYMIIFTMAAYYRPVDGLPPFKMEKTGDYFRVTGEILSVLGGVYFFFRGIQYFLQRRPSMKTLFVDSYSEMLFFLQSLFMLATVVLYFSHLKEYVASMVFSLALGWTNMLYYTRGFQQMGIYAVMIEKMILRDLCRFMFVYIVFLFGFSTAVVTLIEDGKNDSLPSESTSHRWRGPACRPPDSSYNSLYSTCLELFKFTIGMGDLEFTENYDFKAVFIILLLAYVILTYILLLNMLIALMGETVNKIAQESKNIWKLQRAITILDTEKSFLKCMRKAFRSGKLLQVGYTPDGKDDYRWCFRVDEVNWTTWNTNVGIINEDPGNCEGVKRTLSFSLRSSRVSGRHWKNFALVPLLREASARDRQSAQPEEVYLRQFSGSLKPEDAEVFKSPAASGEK
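Fluo-8 calcium influx in TRPV1-expressing cells, kinetic read (ex 480/em 520 nm). Compound added and read 3 min for agonist activity, followed by capsaicin at EC20 final and 2 min further read for enhancement.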
ClpP mod = qHTS Assay for Activators of ClpP; AID 651965, 2013; 340,000 tested, 1.9% active; Potency, µM (highest dose often 57.5 µM), for the others: top-dose activity change, negative = active; purified B. subtilis ClpP, FRET peptide cleavage, 20 min; active = well fitted falling curve with a large enough effect; inconclusive = small, poorly fitted or top-dose-only effect; inactive = no such curve, though single readings can be large or run the other way; further: potency means the concentration at half of the fitted maximal effect; the source files actives as falling curves though it sought activators and does not explain the sign; nearly all actives have a fitted effect of over 65% in size; many hits overshoot -100%
Target sequence (P80244 whole entry, looked up): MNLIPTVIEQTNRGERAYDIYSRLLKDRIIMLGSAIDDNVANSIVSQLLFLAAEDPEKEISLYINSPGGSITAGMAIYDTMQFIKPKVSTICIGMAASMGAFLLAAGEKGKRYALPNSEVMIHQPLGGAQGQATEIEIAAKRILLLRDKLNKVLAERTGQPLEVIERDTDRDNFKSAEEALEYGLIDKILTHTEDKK
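Purified B. subtilis ClpP, 10 microg/mL final in Tris/HCl pH8 with KCl, BSA, glycerol and Tween-20, cleaved an Abz/nitrotyrosine-quenched decapeptide. Fluorescence (ex 320, em 430) was read at 0 and 20 min at room temperature. Delta was normalized to 5.8 microM ADEP and DMSO/no-enzyme controls.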
TRPML1 agonist = human mucolipin-1 channel agonism; TRPML1-expressing cells, Ca2+ dye fluorescence, FDSS; host cell line not named in the record; reference of the full effect not given here; activation, % (no concentration beside the values); 410,000 tested, 0.12% active; in the data active = activation above about 50%; inconclusive = about 30% to 50%; inactive = below about 30%; further: 0% is about no effect; the text of the record puts the active cut at 80%
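Agonist activity was taken from a 110 s kinetic Ca2+ dye read on the FDSS after pinning compounds onto TRPML1-DL cells. The cells were seeded at 1,500/well with Tet inducer, incubated about 16 h, then dye-loaded at room temperature.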
PINK1 expr mod = PINK1 expression modulation; PINK1 immunofluorescence, high-content cytometry, 24 h; Potency, µM (doses to about 76.6 µM), without a hit: top-dose activation (PINK1 increase), hits mostly activators; 410,000 tested, 0.2% active; active = well fitted activation curve with a large enough effect; inconclusive = small, poorly fitted or top-dose-only effect; inactive = flat fitted curve, though single readings scatter; cell line not stated here;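 further: potency means the concentration at half of the fitted maximal effect; % of control where 0% means no effect; nearly all actives have a fitted effect of over 65% in size; a mitochondrial uncoupler was the plate control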
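Cells are seeded, rested 12 hours, then given compound at five concentrations or DMSO for 24 hours. After fixation, blocking and antibody staining, PINK1 amount and mitochondrial localization are scored; CCCP serves as control.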
Menin-MLL FL inh = menin-MLL binding inhibition, fluorescein peptide | FP activity change, % at 61.4 µM | Fluorescence polarization, fluorescein-MLL peptide displacement from menin | 290,000 tested, under 10 active; inconclusive = falling polarisation curve, or a change in total fluorescence; inactive = total fluorescence flat and polarisation flat or rising; no compound was filed as active; the % refers to the polarisation; negative = inhibition;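 further: % of control where 0% means no effect; inhibitors lower the polarisation; unlabelled MLL peptide was the positive control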
* hit, by the source's call; ? = inconclusive; . = not tested or not shown; & = joins results of further samples; [ ] = remark or other dose.

nr | SMILES | Sfp inh | TRPML1 inh | TRPV1 PAM | ClpP mod | TRPML1 agonist | PINK1 expr mod | Menin-MLL FL inh
1 | CCOC(=O)Cn1c(-c2ccccc2)cc(SC)c(C#N)c1=O | 3% | 4 | -2 | . | 2.3 | -0.2% | -2.6
2 | Brc1ccc(/C=N/N2CCN(C3c4ccccc4-c4ccccc43)CC2)s1 | 15% | 7 | -1 | 1.0% | -0.7 | ? | 2.8
3 | COC/C=C/C1=CC2=CC(=O)C(C)(OC(=O)c3cnc4ccccc4n3)C(=O)C2=CN1CCCCO (configuration not stated) | -5%&-22% | 0 | -21 | -0.2% | 1.3 | -0.4% | -5.2[11.7 µM]
4 | c1ccc(C2Nc3ccccc3-c3nc4ccccc4n32)nc1 (configuration not stated) | ? | 7 | -6 | 7.1µM* | -0.2 | 0.2% | -2.0
5 | CCC(C)NC(=O)c1cc(CC(C)C)on1 (configuration not stated) | -20% | 2 | -1 | 0.1% | 0.0 | -0.5% | 1.8
6 | COc1ccc(NC(=O)COC(=O)C2CC(=O)N(CCc3ccc(OC)c(OC)c3)C2)cc1Cl (configuration not stated) | . | 19 | 1 | 1.3% | 0.7 | -0.1% | .
7 | O=C(CSc1ccc(-c2cccs2)nn1)N1CCCCCC1 | 1% | 5 | -10 | -10% | 0.5 | 0.3% | -0.3
8 | CCCCCC1=NN2C(=O)CC(=O)N=C2S1 | 18% | . | 15 | -3.3% | . | -0.3% | 5.9
9 | COc1ccc(NC(=O)N2CC[C@@]3(CCCN(C(=O)c4ccco4)C3)C2)cc1 | 18% | . | . | . | . | -0.2% | -0.6
10 | CCOc1ccccc1NC(=O)C(CC(C)C)NC(=O)C1CCC(C)CC1 (configuration not stated) | 9% | -17&-3 | -22 | -2.1%&1.2% | 2.5&-0.4 | -0.2%&22% | 5.0
11 | CCC(CC)N1CCN(CCc2ccccc2)C(CCO)C1 (configuration not stated) | -18% | -10 | -4 | . | 1.0 | -0.1% | -0.5
12 | CCn1cc2nc(SCC(=O)Nc3ccc(OC)c(OC)c3)n(Cc3ccc(OC)cc3)c(=O)c2n1 | 7% | -13 | 5 | . | 0.0 | 3.1% | -1.4
13 | CCN1CCCc2cc(CN(CCN3CCOCC3)C(=S)Nc3ccccc3OC)ccc21 | 15% | 11 | 2 | -2.8% | 0.7 | 2.7% | -8.0
14 | Cc1cc(C)nc(SCc2nnc(SCC(=O)Nc3c(C)cccc3C)o2)n1 | 12% | -19 | -13 | -1.2% | 0.1 | -2.0% | -5.0
15 | CC(=O)Nc1ccc(S(=O)(=O)N2CCN3CCCC3C2)cc1 (configuration not stated) | 19% | 3 | 2 | 0.4% | -1.0 | 0.7% | -8.2
16 | COC(=O)c1c(N)sc(C(=O)N2CCOCC2)c1C | 23% | 3 | 25 | -3.8% | 1.2 | 1.9% | 5.3
17 | CCOC(=O)c1c(NC(=O)CSc2cn(CCNC(=O)c3ccccc3OC)c3ccccc23)sc2c1CCCC2 | . | 20 | . | -13% | 0.2 | 0.6% | .
18 | Cc1ccc(-c2nc(C)sc2CC(=O)NCc2ccco2)cc1 | ? | 15 | 2 | 0.7% | 2.4 | -0.5% | 1.5
19 | CCOc1cc2c(C#N)c(N(CC)CC)nc(N)c2c(N)n1 | . | -7 | . | 4.8% | -1.0 | -0.3% | .
20 | CCn1c(=O)c(=O)[nH]c2cc(C(=O)NCC3CCCCC3)ccc21 | 2% | 16 | -10 | -4.5% | 0.0 | -0.8% | 4.9
21 | COc1cccc(NC(=O)CSCc2cc(=O)n3nc(C4CC4)sc3n2)c1 | 9% | -19 | -10 | -1.3% | 0.7 | -1.0% | .
22 | CC(C)S(=O)(=O)C/C(N)=N/OS(=O)(=O)c1ccc(Cl)cc1 | -17% | 1 | 2 | 0.8% | 1.1 | 0.8% | 3.6
23 | CCC(C)N(C(=O)C(F)(F)F)C(C(=O)NC1CCCCC1)c1ccncc1 (configuration not stated) | 2% | -3 | -4 | 0.5% | -0.3 | 2.2% | 1.8
24 | O=C(C[C@H]1C/C=C\C[C@@H](Cc2ccc(F)cc2)C(=O)O[C@@H](c2ccccc2)CNC1=O)N[C@@H](CO)Cc1ccccc1 | . | 26 | . | -19% | -0.3 | 0.5% | .
25 | CCCCNC(=O)c1nc(C2CCN(S(=O)(=O)c3c(F)cccc3F)CC2)oc1-c1ccccc1 | . | . | . | ? | 0.2 | 0.9% | .
26 | CCSc1nc2c(sc3nc(C)cc(C)c32)c(=O)[nH]1 | -2% | . | -2 | . | . | . | 2.3
27 | CCCn1c(NCc2ccccc2C)nc2ccccc21 | . | 12 | . | -2.2% | 0.6 | 0.3% | .
28 | OC(c1ccc(F)c(F)c1)c1nc(-c2ccc(Cl)cc2)cs1 (configuration not stated) | . | . | . | 0.2% | 1.2 | ? | .
29 | CCOC(=O)C1=C(NC#N)OC(C)=C(C)C1c1ccc(O)cc1 (configuration not stated) | 6% | -8 | 1 | -7.8% | 0.0 | -1.0% | -0.4
30 | CCOC(=O)c1c(C)oc2nc(C)nc(N3CCN(c4ccc(C)cc4C)CC3)c12 | . | -19 | . | -1.1% | 1.4 | 1.1% | .
31 | COC(=O)[C@]12CCCCC=C1N(Cc1ccco1)C(=O)[C@H](CC(=O)N1CCOCC1)C2 | . | . | . | 0.0% | -0.9 | 2.3% | .
32 | CN(C)CCCN(C(=O)c1ccc(S(=O)(=O)N2CCCc3ccccc32)cc1)c1nc2ccc(F)cc2s1 | 56µM* | . | -1 | . | . | . | -11
33 | Cc1cc(C)n2nc(C(=O)NCc3ccccc3)nc2n1 | 7% | -5 | -4 | 1.5% | -0.6 | -1.6% | 6.7
34 | COc1cc(CC(=O)OCC(=O)NCCc2ccc(S(N)(=O)=O)cc2)cc(OC)c1OC | . | -5 | -7 | 1.3% | -0.7 | -0.5% | .
35 | CCc1noc(-c2ccc(N3CCCCC3)c([N+](=O)[O-])c2)n1 | . | 18 | . | 0.1% | -1.0 | -0.5% | .
36 | CC1CCN(c2ncnc3ccccc23)CC1 | 11% | 14 | -2 | 0.7% | 0.5 | 2.8% | 7.8
37 | O=C(Oc1ccc2ccc(O)cc2c1)c1ccccc1Cl | 2% | -2 | 6 | -2.0% | -1.5 | 3.8% | 3.0
38 | CC(C)(C)OC(=O)NCC(=O)NCC(=O)OCc1ccccc1 | 16% | -14 | -16 | 1.5% | -0.7 | 2.0% | 2.9
39 | CC(C)(C)c1ccc(OCc2ccc(C(=O)Nc3cccnc3)o2)cc1 | 7% | 5 | -1 | . | 0.9 | 3.1% | -0.3
40 | CSc1ccccc1NC(=O)c1csc(C)c1 | 4% | 6 | 1 | -1.0% | -0.1 | 0.5% | -1.2
41 | Cc1ccccc1OCC(=O)O/N=C(\N)Cc1ccc(Cl)cc1 | -7% | -8 | -1 | 1.4% | 0.3 | 1.8% | 0.3
42 | COc1ccc(Br)cc1CNC(=O)CN1CCSc2ccccc21 | . | 14 | . | -2.4% | 5.7 | -0.6% | .
43 | CCN(CC)CCNC(=O)C12CC3CC(C)(CC(C)(C3)C1)C2 | 6% | 12 | 5 | 0.8% | 1.1 | . | 8.1
44 | O=C(O)CN1C(=O)CCS(=O)c2ccccc21 (configuration not stated) | 7% | -16 | 16 | 1.1% | -0.7 | -0.9% | 0.4
45 | COc1ccc(S(=O)(=O)N2CCC(C(=O)NN3CCCCC3)CC2)cc1 | . | 6 | . | -2.1% | 0.3 | 1.7% | .
46 | O=C(Nc1cccc(F)c1)N1CCCC2(CCNCC2)C1 | -4% | . | . | . | . | 0.2% | -0.7
47 | Cc1ccc(-c2nc(N)n(C(=O)Cc3ccccc3)n2)cc1 | 13% | -2 | 8 | 2.4% | -0.7 | 11% | 4.7
48 | [O-]/[N+](=N\Nc1ccc(Cl)cc1)c1ccccc1 | . | -2 | . | . | 0.0 | 2.5% | .
49 | CC(=O)c1ccc(NC(=O)C2=CC(c3ccc4c(c3)OCO4)=NS(=O)(=O)N2C)cc1 | 12% | 1&-29 | 11 | 0.3%&-1.7% | 4.1&1.9 | 1.3%&-1.7% | .
50 | COc1ccc(NC(C)=O)cc1NC(=O)c1cccc(S(=O)(=O)N2CCc3ccccc32)c1 | . | -3 | 7 | 1.0% | 0.2 | 1.7% | .
51 | O=C(CC1CCCCC1)NCc1ccccc1 | 3% | 18 | -7 | . | 0.3 | 2.6% | 1.9
52 | CCc1nc2c(OCCOC)cccn2c1N(C)C(=O)c1ccco1 | . | -12 | . | -7.6% | 0.0 | 2.3% | .
53 | O=c1[nH]nc(CNc2ccc(C(F)(F)F)cc2)c2ccccc12 | 3% | 4 | 3 | -1.3% | -1.0 | 7.3% | -4.9
54 | CC(=O)NN1C(=O)/C(=C/c2ccc(Br)o2)SC1=S | 56µM* | -4 | 8 | 0.9% | -0.9 | -0.5% | ?
55 | COC(=O)c1nccc2c1[nH]c1ccccc12 | . | 3 | 0 | -11% | -0.1 | 1.7% | .

7 records picked at random from the list so far, as already listed:
nr | SMILES | Sfp inh | TRPML1 inh | TRPV1 PAM | ClpP mod | TRPML1 agonist | PINK1 expr mod | Menin-MLL FL inh
13 | CCN1CCCc2cc(CN(CCN3CCOCC3)C(=S)Nc3ccccc3OC)ccc21 | 15% | 11 | 2 | -2.8% | 0.7 | 2.7% | -8.0
20 | CCn1c(=O)c(=O)[nH]c2cc(C(=O)NCC3CCCCC3)ccc21 | 2% | 16 | -10 | -4.5% | 0.0 | -0.8% | 4.9
38 | CC(C)(C)OC(=O)NCC(=O)NCC(=O)OCc1ccccc1 | 16% | -14 | -16 | 1.5% | -0.7 | 2.0% | 2.9
19 | CCOc1cc2c(C#N)c(N(CC)CC)nc(N)c2c(N)n1 | . | -7 | . | 4.8% | -1.0 | -0.3% | .
14 | Cc1cc(C)nc(SCc2nnc(SCC(=O)Nc3c(C)cccc3C)o2)n1 | 12% | -19 | -13 | -1.2% | 0.1 | -2.0% | -5.0
8 | CCCCCC1=NN2C(=O)CC(=O)N=C2S1 | 18% | . | 15 | -3.3% | . | -0.3% | 5.9
12 | CCn1cc2nc(SCC(=O)Nc3ccc(OC)c(OC)c3)n(Cc3ccc(OC)cc3)c(=O)c2n1 | 7% | -13 | 5 | . | 0.0 | 3.1% | -1.4
